High-throughput results from PubChem.
eIF4H FP inh: human eIF4H binding inhibitors, primary screen, translation initiation inhibitor project, biochemical, uHTS, fluorescence polarization; eIF4H fluorescence polarization binding assay; inhibition, % at 35 µM; 290,000 compounds, 0.94% hits;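 active = 50% or more with normal probe brightness, or confirmed in later tests; inconclusive = above 50% with abnormal brightness, or retests that disagree; inactive = below 50% or failed in later tests; about a fifth of its hits are not listed in these tables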;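 also: calls also rest on retests at 20 µM and on dose response follow-up; 0% = protein and probe with vehicle and 100% = probe without protein; strong numbers were not always called active; many hits fall short of the cut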
PABP polyA inh: PABP poly(A) RNA binding inhibitors, primary screen, biochemical, fluorescence polarization, uHTS. Polyadenylate-binding protein 1 (Homo sapiens), P11940. inhibition, % at 35 µM. 290,000 compounds, 1% hits;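 active = 50% or more with normal probe brightness, or confirmed in later tests; inconclusive = above 50% with abnormal brightness, or retests that disagree; inactive = below 50% or failed in later tests; about a fifth of its hits are not listed in these tables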;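 also: calls also rest on retests at 20 µM and on dose response follow-up; controls were probe without protein and protein plus probe with vehicle; some compounds called inactive have numbers as strong as hits; many hits fall short of the cut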
Target sequence (P11940 whole entry, looked up): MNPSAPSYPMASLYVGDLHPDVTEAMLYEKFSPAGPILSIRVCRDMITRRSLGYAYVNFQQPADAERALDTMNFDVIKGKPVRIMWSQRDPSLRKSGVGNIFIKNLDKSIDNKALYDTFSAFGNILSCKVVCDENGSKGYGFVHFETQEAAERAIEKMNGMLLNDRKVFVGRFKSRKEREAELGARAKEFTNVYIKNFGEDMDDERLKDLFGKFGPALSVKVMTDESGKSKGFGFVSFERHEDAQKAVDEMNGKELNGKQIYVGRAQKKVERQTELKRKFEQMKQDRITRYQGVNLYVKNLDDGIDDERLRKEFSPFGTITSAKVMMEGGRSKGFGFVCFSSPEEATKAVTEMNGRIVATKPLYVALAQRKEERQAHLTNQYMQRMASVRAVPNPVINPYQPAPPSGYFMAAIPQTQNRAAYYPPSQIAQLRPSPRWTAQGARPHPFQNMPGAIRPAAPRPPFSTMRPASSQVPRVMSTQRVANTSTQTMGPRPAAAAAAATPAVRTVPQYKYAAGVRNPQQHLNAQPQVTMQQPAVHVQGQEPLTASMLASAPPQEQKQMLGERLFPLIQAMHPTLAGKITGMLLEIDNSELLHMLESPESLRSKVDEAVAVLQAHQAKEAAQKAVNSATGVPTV
UUG fidelity: modulators of yeast start codon fidelity, primary screen, whole organism, S. cerevisiae, single point, plate reader. S. cerevisiae UUG-firefly luciferase reporter, luminescence/redox ratio. activity score, % at 18.7 µM. 350,000 compounds, 0.13% hits. AID 602363, 2012;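 active = replicate mean at a twofold rise or more, about +100% in these data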;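 also: firefly luciferase made from a UUG start codon reports start codon fidelity; reporter light over untreated wells divided by growth signal over untreated wells; some hits fall short of that in this replicate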
MT1-MMP act inh: blockers of MT1-MMP proenzyme processing, primary screen, HT1080 RFP-PRO-GFP cells, GFP/RFP fluorescence. 360,000 compounds, 0.061% hits. Matrix metalloproteinase-14 (Homo sapiens), P50281. GFP/RFP ratio change, % at 20 µM. GFP/RFP ratio fluorescence, overnight; percent of plate control window, DMSO zero;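 active = GFP/RFP ratio change of at least 30% with cell ATP level not reduced by more than half and red fluorescence within 50% of control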; also: strong numbers were not always called active
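Assay system: HT1080 cells carrying an RFP-PRO-GFP reporter | Dosing: Single dose of 20 µM compound, 1% DMSO final | Incubation: Cells overnight before dosing, compound overnight, 37 °C, 5% CO2 | Evaluation: GFP/RFP fluorescence ratio | Control set: DMSO and RFP-L50D-GFP cell wells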
Rce1 inh: yeast Rce1p protease inhibitors, primary screen, biochemical, fluorescence, cell-free homogeneous. 290,000 compounds, 0.27% hits. yeast membranes, quenched prenylated peptide cleavage fluorescence. calls only. CAAX prenyl protease 2 (Saccharomyces cerevisiae (strain ATCC 204508 / S288c)), Q03530;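 active = fall in fluorescence gain of 50% or more versus controls, with final raw signal at or below 3038400; inconclusive = same 50% fall but final raw signal above 3038400; inactive = fall in fluorescence gain under 50%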;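 also: plate controls were neutral control wells for no effect and wells lacking membranes for full effect; tested at 10 µM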
HIV Env fusion: inhibitors of HIV-1 Env-driven cell-cell fusion, primary screen, HeLa-JRFL effector, CEM21 target cells, luciferase | inhibition, % at 12.3 µM | 360,000 compounds, 1.1% hits;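 active = mean replicate inhibition score of at least 50 and every replicate individually at or above 50; inconclusive = only one of the two criteria met; inactive = mean below 50 and not all replicates reaching 50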;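 also: 0% = plate neutral controls and 100% = maraviroc near 300 nM; one replicate is shown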
CSC inhib: cancer stem cell viability inhibitors, primary screen, luminescence; cancer stem cell-like cells viability; inhibition, % at 7.5 µM; 300,000 compounds, 1.1% hits;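 active = mean at 75% or more and at least half the replicates too; inconclusive = mean and replicates disagree; tested in HMLE shEcad cells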;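 also: 0% = median of negative and 100% = median of positive control wells; the first replicate is given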
MT1-MMP act inh RFP: second read-out of MT1-MMP act inh, no call of its own (marks repeat the call); RFP signal change, %; measured here: RFP expression control read;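 0 = vehicle wells; hits needed this value within 50% of zero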
* = called active by the depositor; i = inactive; ? = inconclusive; nt = not tested or not shown; & = joins results of further samples; [ ] = another dose, or the depositor's remark. Not all compounds are listed, so the mix of outcomes need not match the whole.

SMILES	eIF4H FP inh	PABP polyA inh	UUG fidelity	MT1-MMP act inh	MT1-MMP act inh RFP	Rce1 inh	HIV Env fusion	CSC inhib
COCc1c(C(=O)NCc2ccccc2CN2CCCC2)oc2ccccc12	nt	nt	-10.9	-0.7	-0.3	nt	nt	-2.0
O=C(O)CSc1nnc(Cn2nnc3ccccc32)n1CCc1ccccc1	-4.8	12.2	nt	3.5	12.4	i	3.7	10.3
CC1(C)C(=O)OC(c2c(F)c(F)c(F)c(F)c2F)C2(CCCCC2)C1=O (configuration not stated)	-6.5	5.0	-4.9	-1.2	1.1	i	nt	-12.8
Cc1ccc(OP(=O)(Nc2c(C)n(C)n(-c3ccccc3)c2=O)Oc2ccc(C)cc2)cc1	-5.2	-0.2	nt	-2.9	1.1	i	1.1	-15.7
Cn1cnc(S(=O)(=O)N2CCN(C(c3ccccc3)c3ccccc3)CC2)c1	-2.5	11.5	7.6	nt	nt	i	-4.4	1.1
CNCC(O)C(O)C(O)C(O)CO (configuration not stated)	-3.0	6.8	-9.3	0.2	0.9	i	nt	9.8
C=CCn1cnc2c(nnn2-c2ccc(Cl)cc2)c1=O	5.5	0.6	-4.6	-2.0	-6.0	i	-17.9	6.8
O=C(NCc1ccccc1)NC1(C(=O)N2CCOCC2)CCCCC1	1.9	-4.0	-1.9	-0.1	-1.9	i	-8.2	-7.8
O=C(Cn1ncc(Cl)c(Cl)c1=O)c1ccc2c(c1)OCCO2	nt	nt	nt	2.0	-0.1	nt	-83.7	111.6*
CC(=O)Nc1ccc(S(=O)(=O)N(C)c2ccc(OCCOc3cccc(C)c3)cc2)cc1	nt	nt	-14.9	1.2	-10.8	nt	1.8	-2.1
CCSc1nnc(NC(=O)C(C)(C(F)(F)F)C(F)(F)F)s1	-3.1	13.6	-11.0	-4.2	-16.4	i	15.3	55.8
Cc1noc(C)c1S(=O)(=O)Nc1ccc(C(=O)NC2CCCCCC2)cc1	-7.1	-2.9	2.2	-6.1	2.8	i	nt	-6.7
CNC[C@@H]1Oc2cc(Br)ccc2S(=O)(=O)N([C@H](C)CO)C[C@@H]1C	nt	nt	1.3&0.6	9.3	4.6	nt	-12.6[16.7 µM]	nt
Cc1ccc(S(=O)(=O)NCC(c2cccnc2)N2CCc3ccccc32)cc1 (configuration not stated)	1.6	-8.3	-5.3	0.4	-2.8	i	12.1	-8.0
COc1ccc(-n2c(SCC(=O)c3ccc[nH]3)nnc2-c2ccccc2)cc1	-0.8	25.0	nt	-0.5	-2.2	i	-11.5	14.1
CC(C)(C)OC(=O)CN1c2cccc3cccc(c23)S1(=O)=O	5.4	0.1	-2.1	0.6	4.0	i	14.2	-15.1
S=C(NCc1ccncc1)NC1CCCC1	-7.2	5.7	nt	0.4	3.9	i	6.6	-8.0
COc1ccc(Cn2c(CCC(=O)N3CCN(c4ccccn4)CC3)nc3ncccc3c2=O)cc1	-13.5	-2.7	1.9	0.9	0.3	nt	nt	nt
O=C(COc1ccccc1Cl)NCC(c1cccs1)N1CCOCC1 (configuration not stated)	nt	nt	-1.6	-4.6	-13.6	i	nt	-14.0
COc1ccc(S(=O)(=O)Nc2ccccc2C(=O)NCc2ccco2)cc1Br	-6.0	-7.3	-8.6	-0.2	-1.4	i	nt	16.5
O=c1[nH]c2ccccc2c(=O)n1Cc1ccco1	-0.5	4.4	-9.7	-1.9	2.4	i	nt	15.0
COc1cc(C(=O)Nc2cccc(-c3nc4ccccc4o3)c2C)cc(OC)c1OC	-7.1	-5.4	nt	0.5	-1.7	i	nt	nt
CC(C)CNc1cc(=O)n(C)c(=O)n1C	-4.3	-1.0	-7.1	9.6	7.8	i	-19.0	8.4
NC(c1ccc(F)c(F)c1)c1nc(-c2cc(F)cc(F)c2)cs1 (configuration not stated)	nt	nt	2.6	0.4	-2.9	nt	-14.8	nt
Cc1nc2cc(-c3cccc(F)c3)nn2c(C)c1CCC(=O)NC(C)c1ccc2c(c1)OCCO2 (configuration not stated)	-2.2	-6.3	-12.4	3.6	-8.5	i	?	-10.1

Following part.
SMILES	eIF4H FP inh	PABP polyA inh	UUG fidelity	MT1-MMP act inh	MT1-MMP act inh RFP	Rce1 inh	HIV Env fusion	CSC inhib
COc1ccc([N+](=O)[O-])c2c(=O)ccoc12	-6.2	-3.5	nt	-0.3	3.7	i	nt	-3.6
CCCCNC(=O)OCC(CC)NC(=O)OC(C)C (configuration not stated)	-6.0	-12.3	-11.2	1.3	-0.3	i	nt	19.4
COc1ccc(-c2ccc3c(c2)C2CC3CCN2C(=O)OCc2ccccc2)cc1 (configuration not stated)	nt	nt	-11.9	0.7	-7.8	nt	37.5	nt
Nc1cc(=O)[nH]c(SCC(=O)N2N=C(c3ccc(Cl)cc3)CC2c2ccco2)n1 (configuration not stated)	10.6	-6.9	nt	-1.0	3.7	i	-10.9	10.5
COC(=O)c1nc2nc(C)cc(=O)n2[nH]1	0.7	-6.5	4.7	1.8	-0.5	i	nt	-3.8
Cc1ccc(/C=N/NC(=S)NC(C)C)o1	-1.8	-2.4	-30.4	0.5	1.2	i	-12.6	6.5
CCOC(=O)C1(C)CCCN(C(=O)c2cc(OC)c(OC)c(OC)c2)C1 (configuration not stated)	nt	nt	0.1	0.7	1.4	nt	-18.9	nt
O=[N+]([O-])c1cccc(/C=N/n2cnnc2)c1	-4.4	0.4	-14.8	2.6	1.6	i	-4.8	-1.4
Cc1cc2ccccc2cc1CN1CCCCC1	5.0	-4.9	0.5	-0.7	2.1	i	1.9	0.6
CC1CN2C(c3ccc([N+](=O)[O-])cc3)=CSC2=N1 (configuration not stated)	-4.4	-8.7	-13.0	-0.4	-0.7	i	-29.2	-19.7
COc1cc(-c2cc(C(=O)Nc3ccncc3)c3ccccc3n2)cc(OC)c1OC	nt	nt	-3.1	1.3	-1.2	nt	2.4	nt
Cc1cc(Cl)ccc1OCC(=O)Nc1ccccc1N1CCOCC1	-3.9	1.1	-4.8	15.5	-11.1	nt	12.8	nt
O=C(Cc1ccccc1)NNC(=O)c1cccs1	-8.9	-14.0	-28.9	-1.9	2.0	nt	nt	-9.8
Cc1ccc(CNC(=O)COC(=O)c2cc(=O)[nH]c3ccccc23)cc1	nt	nt	-24.7	-7.0	0.1	nt	nt	-19.3
CCC(OC(=O)CNS(=O)(=O)c1ccccc1)C(=O)c1ccccc1 (configuration not stated)	-10.2	-2.4	-10.7	-1.2	-0.8	i	2.0	3.4
COc1ccccc1NC(=O)Nc1ccccc1Br	-3.8	-0.6	nt	-0.3	-0.2	i	7.0	-5.5
O=C(NC1CCCCC1)c1ccccc1NC(=O)C1CC(=O)N(c2ccc(Cl)cc2)C1 (configuration not stated)	1.3	2.6	-8.6	1.4	4.5	i	-61.2	-12.5
CC(=O)Nc1cc(-c2cccc(F)c2)cn2c(-c3ccc(F)c(Cl)c3)cnc12	nt	nt	-2.7	-1.2	-3.9	nt	-4.9	nt
O=C(Nc1cc(F)ccc1F)c1ccc(-n2cncn2)c([N+](=O)[O-])c1	nt	nt	-6.5	9.9	2.1	i	nt	12.9
c1ccc(-c2noc(CC3CCCCC3)n2)nc1	-8.7	-2.0	nt	3.9	0.3	i	-16.5	-8.1
CCOC(=O)c1cnc2ccc(OC)cc2c1Nc1ccc(N2CCN(C)CC2)cc1	-7.3	-1.3	-5.3	-1.9	-8.6	i	12.5	22.9
COc1cc(NC(=O)C2CCCN2C(=O)C2CCC(C)CC2)cc(OC)c1OC (configuration not stated)	8.7	-4.9	3.4	-2.0	6.3	i	9.4	-1.1
O=C(Oc1ccc[nH]c1=O)C1CC1	nt	nt	-30.2	3.5	7.1	nt	2.5	nt
O=C(c1ccccc1)c1ccc2nc[nH]c2c1	-6.7	-4.4	nt	-7.6	-3.8	i	nt	0.8
CN(C)C(=O)CN1C(=O)c2cccc3cccc1c23	-1.7	8.7	-9.9	-0.9	2.1	i	-0.1	-4.0

Following part:
SMILES	eIF4H FP inh	PABP polyA inh	UUG fidelity	MT1-MMP act inh	MT1-MMP act inh RFP	Rce1 inh	HIV Env fusion	CSC inhib
Cc1ccc(-n2nnnc2-c2ccccc2Br)cc1	nt	nt	-9.9	0.3	-0.8	i	-20.5	-11.0
O=C1c2cccnc2C(O)N1C1CCCCC1 (configuration not stated)	-10.5	0.7	-15.2	5.1	6.9	i	nt	8.2
COc1ccc2nc(C)cc(Nc3ccccc3O)c2c1	0.9	-10.3	1.2	2.9	-1.9	i	-8.3	11.1
COCCNC(=S)N/N=C(\C)c1ccc(Cl)c(Cl)c1	3.2	0.1	nt	2.9	-2.7	i	-9.7	-7.5
COc1ccc(OC)c(N(CC(=O)Nc2ccc3c(c2)OCCO3)S(C)(=O)=O)c1	1.3	1.7	18.9	-1.2	0.6	i	nt	-8.2
CC12CN3CC(C)(CN(C1)C3c1ccccc1)C2O (configuration not stated)	-3.4	-4.8	-17.4	-0.7	0.8	i	-3.2	-7.5
COc1ccc(-c2coc3c(C(=O)N4CCN(C)CC4)cccc23)c(C)c1	nt	nt	-6.6	-4.9	-5.4	nt	0.0	nt
CCCCCCCCNC(=O)c1cccnc1SCC(=O)Nc1ccccc1OC	13.3	3.3	-4.1	-1.0	-7.2	i	nt	1.4
Cc1ccc(Cc2cc(-c3ccc(C)cc3)n[nH]c2=O)cc1	7.9	-2.7	-8.9	2.1	-0.8	i	4.4	-14.8
Cc1cc(C)c(C)c(OCCOCCN2CCOCC2)c1	-14.3	-3.9	-11.3	9.5	4.3	i	nt	-0.8
CC1CC(C)CN(CC(=O)N2c3ccccc3CCc3ccccc32)C1 (configuration not stated)	9.0	10.0	-6.8	0.2	0.8	i	?	-23.3
COc1cc(NC(=O)CN(C)S(=O)(=O)c2ccc3c(c2)CC(C)N3C(C)=O)cc(OC)c1OC (configuration not stated)	8.6	6.3	-6.0	2.1	-3.9	i	2.6	-17.3
COc1ccc(C(=O)NCCNc2nc3c(C)cccc3cc2C#N)cc1	nt	nt	-15.2	2.5	0.2	i	-6.2	4.4
C/C(CCc1ccccc1)=N\NC(=O)C(=O)Nc1cccc(Cl)c1	2.1	-12.5	-21.0	1.6	2.8	i	-29.3	1.4
Cc1ccc2c(c1)C(C)(C)[C@]1(C)NC(=O)CCN21	2.8	-6.9	-6.3	34.7*	36.4*	i	nt	nt
CC(CC(=O)O)n1nnc2ccccc21 (configuration not stated)	-5.6	3.9	-10.8	2.8	2.2	i	-10.0	-9.5
CS(=O)(=O)Nc1ccc(S(=O)(=O)Nc2nccs2)cc1	-11.7	-13.2	-17.1	-1.2	-0.1	i	nt	0.7
O=C1NC(=O)/C(=C/c2ccco2)N1	nt	nt	-2.4	-2.7	2.8	nt	-44.1	3.5
COc1ccc(C(CCNCc2ccc(N(C)C)cc2)C(C)C)cc1 (configuration not stated)	2.7	8.5	nt	1.0	-2.7	i	64.9*	18.6

Quoted from above (two entries):
SMILES	eIF4H FP inh	PABP polyA inh	UUG fidelity	MT1-MMP act inh	MT1-MMP act inh RFP	Rce1 inh	HIV Env fusion	CSC inhib
Cc1ccc(-n2nnnc2-c2ccccc2Br)cc1	nt	nt	-9.9	0.3	-0.8	i	-20.5	-11.0
O=C1c2cccnc2C(O)N1C1CCCCC1 (configuration not stated)	-10.5	0.7	-15.2	5.1	6.9	i	nt	8.2
